# Screening data: PubChem, National Center for Advancing Translational Sciences (NCATS)
# Vaccinia mCherry: vaccinia inhibition (mCherry reporter). Vaccinia virus mCherry reporter infection, fluorescence; about a quarter of the inactives have no number. Potency, µM (highest dose often 36.5 µM), without a hit: at the top dose activity change, negative = inhibition, hits mostly inhibitors. actives 0.63% (n = 310,000). AID 720579; active = well fitted inhibition curve with a large enough effect; inconclusive = small, poorly fitted or top-dose-only effect; inactive = no such curve, though single readings can be large or run the other way; tested in A549 cells; also: nearly all actives have a fitted effect of over 35% in size; inactives centre near -10
# Vaccinia Venus: inhibitors of vaccinia virus (Venus reporter); Vaccinia virus Venus reporter expression, fluorescence; Potency, µM (titrated, usually from 36.5 µM), for the others: at the highest dose activity change, negative = inhibition, most hits filed as inhibitors; actives 0.46% (n = 330,000); AID 720580; active means well fitted inhibition curve with a large enough effect; inconclusive means small, poorly fitted or top-dose-only effect; inactive means no such curve, though single readings can be large or run the other way; tested in A549 cells; also: nearly all actives have a fitted effect of over 30% in size; inactives centre near -10
# Starred values were filed as active, the others as inactive; i = inactive; ? = inconclusive; nt = not tested or not shown; & = joins results of further samples; [ ] = dose if it differs, or a comment. % is scaled to controls: 0 for no effect and ±100 for the full control effect; potency is read from the fitted curve at half-maximal effect. No enrichment for hits; about 0.87% have a hit in one of these screens.
Structure | Vaccinia mCherry | Vaccinia Venus
Cc1nnc(SCC(=O)NCCOc2ccc(Cl)cc2)n1-c1ccccc1 | nt | -16%
CCOc1cccc(CN2CCC(n3nccc3NC(=O)C3CC3)CC2)c1O | -20% | -11%
CC(=O)Nc1ccc(NC(=O)CCS(=O)(=O)c2ccc3c(c2)CC(=O)N3C)cc1 | -2% | -6%
N#Cc1ccc(-c2nnnn2-c2ccc3c(c2)OCO3)cc1 | -14% | -5%
CC(=O)C1=C(O)C(=O)N(Cc2ccco2)C1c1ccccc1 (stereo unspecified) | -11% | -3%
CC(Oc1ccc2c(c1)c1ccnc3c4ccccc4c(=O)n2c13)C(=O)NCCN1CCOCC1 (stereo unspecified) | -3% | ?
C/C(=N\NC(=O)Nc1ccccc1)c1ccc2ccccc2c1 | -24% | -14%
Cc1nc(NCCc2ccccc2)c(C#N)c(C)c1[N+](=O)[O-] | i | -6%
CN/C=C1\C(=O)C(C)(C)Oc2ccc3ccc(=O)oc3c21 | nt | -23%
C[C@H](CO)N1C[C@H](C)[C@@H](CN(C)C(=O)c2ccc3ccn(C)c3c2)OCc2cnnn2CCCC1=O | -9% | -8%
Cc1cc(C)cc(OCC(=O)N2CCN(c3ncccn3)CC2)c1 | -22% | -18%
CC1=C(C(=O)OCc2ccccc2)C(c2ccsc2)C(C#N)=C(N)O1 (stereo unspecified) | nt | -3%
Cn1nnc2c(N3CCN(c4ccc(F)cc4)CC3)ncnc21 | -5% | -13%
COc1cc(/C=C/C(=O)OCC(=O)NC(=O)NC(C)C)ccc1OCC#N | -25% | -6%
O=C(/C=C/[C@H]1O[C@@H](n2cnc3c(NC(=O)c4ccccc4)ncnc32)[C@H](O)[C@@H]1O)NCc1ccco1 | 28% | -13%
CC1=CC(C)(C)N2C(=O)C3(C(C#N)=C(N)Oc4cc(O)ccc43)c3cccc1c32 (stereo unspecified) | -3% | 1%
COC(=O)C1C2CC3c4[nH]c5cc(OC)ccc5c4CCN3CC2CC(OC(=O)CC(C)=O)C1OC (stereo unspecified) | ? | 46%[activator]
CCC[C@H]1COCCS(=O)(=O)N1Cc1ccccc1F | -21% | -8%
CC(CNc1ccc([N+](=O)[O-])cc1)NC(=O)c1ccccc1Br (stereo unspecified) | -8% | -2%
CC(C)(C)c1ccc(C2C(C(=O)c3ccco3)=C(O)C(=O)N2CC2CCCO2)cc1 (stereo unspecified) | -3% | 1%
O=C(O)/C=C/c1ccc(OCc2cccc(F)c2)cc1 | -2% | -5%
Cc1ccc(NC(=O)c2sc3ncn(Cc4cccc(F)c4)c(=O)c3c2C)c(Br)c1 | -12% | -8%
CC(NC(=O)COC(=O)CCc1ccccc1)c1ccccc1 (stereo unspecified) | -8% | -2%
Cc1ccc(C)c(N2CCN(S(=O)(=O)c3cc4c(cc3Cl)NC(=O)CO4)CC2)c1 | i | 3%
Cc1ccc2c(c1)nnn2C1CCN(CC(=O)NCc2ccccc2F)CC1 | -8% | -17%

Structure | Vaccinia mCherry | Vaccinia Venus
COc1ccc(CNC(=O)CN(CCC(C)C)S(=O)(=O)c2ccc3c(c2)OCCO3)cc1 | i | -12%
COc1cccc(CNC(=O)Cc2ccc(NC(=O)N3CCSc4ncccc43)cc2)c1OC | -8% | -14%
COCc1nnc(NC(=O)c2ccccc2Oc2ccccc2)s1 | -1% | -4%
Cc1nc(C(=O)NC2CC2)sc1C1(C)CC(c2cccc([N+](=O)[O-])c2)=NO1 (stereo unspecified) | -2% | -7%
CCO[C@H]1OC(C(=O)N2CCOCC2)=C[C@@H](C)[C@@H]1CCCO | -13% | -17%
Cc1cccc(C(=O)NC(=S)Nc2ccc(S(=O)(=O)N3CCCCC3)cc2)c1 | -6% | -21%
COc1cc(OC)cc(C(=O)OCC(=O)NC(C)CCc2ccccc2)c1 (stereo unspecified) | -4% | -5%
Cc1ccc(C)c(S(=O)(=O)N2CCN(C(=O)CCC(=O)c3cc(C)sc3C)CC2)c1 | -9% | -23%
CCc1nc2ccc(C(=O)NCc3cccs3)cn2c1N(CCC(C)C)CCN(C)C | i | -2%
Cc1ccc(S(=O)(=O)N2CCc3cc(C(=O)Nc4ccc(C)c(C)c4)ccc32)cc1 | -6% | -10%
O=C(C[C@@H]1CC[C@@H]2[C@H](COC[C@H](O)CN2Cc2cccc(C(F)(F)F)c2)O1)NCc1ccc(Cl)cc1 | ? | -26%
CN(C)CCCN1c2ccccc2CCc2ccc(Cl)cc21 | -13% | -26%&50%
Cc1ccc(N(CC(=O)NCCSCc2ccco2)S(C)(=O)=O)cc1 | i | -4%
Cn1c(=O)oc2cc(S(=O)(=O)N3CCC(C(=O)N4CCN(c5ccc(Cl)cc5)CC4)CC3)ccc21 | -18% | -16%
CCc1ccccc1NC(=O)c1cc(S(=O)(=O)NC2CCCC2)ccc1F | -14% | -9%
Cc1c(Cl)cccc1NC(=O)c1cccc(NC(=O)N2CCSc3ncccc32)c1 | -10% | -19%
O=C(CSc1nnc(NC(=O)c2ccc(F)cc2F)s1)NC1CCCC1 | -4% | -7%
CCN(CC)CCNC(=O)c1nn(-c2ccc(C)cc2)c(=O)c2c1c1ccccc1n2C | -19% | -10%
CCOc1cc(-c2nc(-c3ccccc3OC)no2)cc(OCC)c1OCC | nt | 2%
N#Cc1ccc(-c2nc3c4ccccc4ccn3c2Cc2ccccc2C(F)(F)F)cc1 | 12% | 10%
COc1ccc(S(=O)(=O)N2CCOCC2)cc1Br | -9% | -2%
C[C@H](CO)N1C[C@H](C)[C@@H](CN(C)Cc2ccc(Cl)c(Cl)c2)Oc2c(NC(=O)C3CC3)cccc2C1=O | -25% | ?
O=[N+]([O-])c1cc2ncccc2c2ncccc12 | ? | -8%
Cc1ccc(-c2cc(C(=O)N(C)CC(=O)Nc3ccccc3Br)c3ccccc3n2)o1 | -11% | -19%
CCOC(=O)c1sc(NC(=O)CSc2nncs2)c(C(=O)OCC)c1C | nt | ?

Structure | Vaccinia mCherry | Vaccinia Venus
Cc1nn(-c2ccccc2)c2c1P(=O)(O)/C(=C1\N(C)c3ccccc3C1(C)C)C=N2 | i | 3%
CN1CCC(=NNC(=O)CSc2ccc(Cl)cc2)CC1 | 3% | -12%
CCOC(=O)[C@@H]1CCN(Cc2ccccc2)C[C@H]1c1ccccc1 | -14% | -5%
Cc1[nH][nH]c(=O)c1C(c1ccc(Br)cc1)c1c(C)[nH][nH]c1=O | -9% | -13%
C=CCn1c(C)c(C(C)=O)c(N2CCN(C(c3ccccc3)c3ccccc3)CC2)nc1=S | 1% | 2%
CC(=O)Nc1cccc(NC(=O)c2ccccc2OCc2ccccc2)c1 | ? | 4%
NS(=O)(=O)c1ccc(-c2c(-c3ccccc3)sc3ccccc23)cc1 | -12% | -23%
O=C(O)c1ccc(NS(=O)(=O)c2ccc(Cl)c(Cl)c2)cc1O | nt | 0%
COc1ccc(Nc2ncc(C(=O)Nc3cc(Cl)c(OC)cc3OC)c3ccccc23)cc1 | -7% | -10%
CCOC(=O)Cc1csc(NC(=O)c2cc(C)c(C)s2)n1 | -17% | -16%
CCOC(=O)c1c(NC(=O)COC(=O)c2nc(Cl)ccc2Cl)sc2c1CCC2 | -12% | -6%
CCC(=O)N1CCc2cc(CNC(=O)Nc3cc(Cl)ccc3C(=O)OC)ccc21 | -21% | -12%
CCN(CC)Cc1c(O)c(Cl)cc2c3c(c(=O)oc12)CCCC3 | nt | -9%
Cc1ccc2nc3nc(NCC4CCCO4)c(C(=O)NC4CCCC4)cc3c(=O)n2c1 (stereo unspecified) | -17% | -16%
O=C(NCCS(=O)(=O)NCc1cccs1)c1ccccc1 | -9% | 0%
CCC(C)c1ccccc1NC(=O)CN1CCN(C/C=C/c2ccccc2)CC1 (stereo unspecified) | ? | -30%
O=S(=O)(/N=C(/Nc1ccc(Cl)c(S(=O)(=O)N2CCOCC2)c1)c1ccc(F)cc1)c1ccccc1 | -20% | -3%
Cc1cccc(C(=O)NCC(c2ccco2)S(=O)(=O)c2cccs2)c1 (stereo unspecified) | -12% | -10%
COC(=O)CSc1cc(C(=O)c2nccn2C)c2ccccc2n1 | -13% | -6%
C=CCNC(=S)NNC(=O)CSc1nc2ccccc2s1 | -8% | -3%
CS(=O)(=O)c1ccc(NS(=O)(=O)c2ccc3ccccc3c2)cc1 | -11% | -7%
CN(CC(=O)Nc1c(Cl)cccc1Cl)CC(=O)N1CCc2ccccc21 | i | -21%
CN1CCN(NC(=O)Nc2ccc(Br)cc2Cl)CC1 | -16% | -17%
O=S(=O)(c1c(F)cccc1F)N1CCN(C(=S)NCc2ccc3c(c2)OCO3)CC1 | i | -10%
CCOC(=O)c1ccsc1NC(=O)CCS(=O)(=O)c1ccccc1 | ? | ?

Structure | Vaccinia mCherry | Vaccinia Venus
O=C(NCc1ccc(Cl)cc1)c1cnc(N2CCOCC2)c2ccccc12 | -7% | -4%
CCC1CCCCN1C(=O)COC(=O)c1cncc(Br)c1 (stereo unspecified) | i | -11%
Cc1oc(-c2ccccc2Cl)nc1CSCC(=O)NC1CCCC1 | i | -22%
Cc1ccc(NC(=O)CCS(=O)(=O)c2ccc3nc(C)sc3c2)c(C)c1 | i | -21%
COc1ccccc1CNC(=O)Cn1ncc2c3ccccc3n(Cc3ccccc3C)c2c1=O | -10% | ?
Cc1ccc(CCNC(=O)C2CC(=O)N(CCc3ccccc3)C2)cc1 (stereo unspecified) | -17% | -9%
COc1cccc(Nc2nnc(SCc3cc([N+](=O)[O-])cc4c3OCOC4)s2)c1 | nt | ?
O=C(Nc1ccncc1)Nc1ccc(Cl)cc1 | i | -15%
O=[N+]([O-])c1ccc2c(c1)C=C1CCCCC1(N1CCCCC1)O2 (stereo unspecified) | -13% | -9%
COc1ccc(C(=O)Nc2c(N)nc(SCC(=O)NCC3CCCO3)[nH]c2=O)cc1OC (stereo unspecified) | i | -16%
COc1ccc(C(CNC(=O)c2oc3cc(C)c(C)cc3c2C)N2CCCCC2)cc1 (stereo unspecified) | -7%&-27% | -10%&-14%
CCOc1ccc(CCNC(=O)c2ccc(CS(=O)Cc3ccc(Cl)cc3)o2)cc1 (stereo unspecified) | -14% | -13%
CCOC(=O)C1CCN(C(=O)COc2cc(C)c(Br)c(C)c2)CC1 | -14%[1.46 µM] | -23%
O=S(=O)(c1ccc(-c2n[nH]c(=S)o2)cc1)N1CCCCC1 | ? | -5%
CCc1ccccc1NC(=O)CN1CCN(C(=O)c2ccc(OCc3cn4ccccc4n3)cc2)CC1 | -7% | -16%
Cc1ccc(O)c(Nc2ncnc3ccccc23)c1 | ? | -18%
Cc1cc(NS(=O)(=O)c2ccc(NC(=O)Cc3ccc([N+](=O)[O-])cc3)cc2)nc(C)n1 | -6% | -15%
CC(C)(C)OC(=O)NC1CC2CCCC(C1)N2Cc1ccccc1 (stereo unspecified) | ? | 0%
O=C(C1CCN(S(=O)(=O)c2cccs2)CC1)N1CCN(Cc2ccccc2)CC1 | -12% | -16%
COc1ccc(NC(=O)N2CCN(S(=O)(=O)c3ccc4c(ccn4C)c3)CC2)cc1OC | i | -13%
CCOc1cnn(-c2cc(Oc3ccc(C)cc3)ncn2)c(=O)c1Cl | nt | -13%
CCC1(c2ccccc2)C(=O)N=C(N)N(C#N)C1=O (stereo unspecified) | i | -3%
O=C(O)c1cc(S(=O)(=O)NC2CCCc3ccccc32)ccc1O (stereo unspecified) | 12% | -7%
Cc1nc(CSc2ccc(Br)cc2)cs1 | i | -3%
Cc1cccc(NC(=O)c2c(NC(=O)c3cccs3)sc3c2CCC(C)C3)c1 (stereo unspecified) | -19% | -11%

# A second format for part of the listing above:
O=S(=O)(c1ccc(-c2n[nH]c(=S)o2)cc1)N1CCCCC1
  Vaccinia mCherry: ?	Vaccinia Venus: -5%
CCc1ccccc1NC(=O)CN1CCN(C(=O)c2ccc(OCc3cn4ccccc4n3)cc2)CC1
  Vaccinia mCherry: -7%	Vaccinia Venus: -16%
Cc1ccc(O)c(Nc2ncnc3ccccc23)c1
  Vaccinia mCherry: ?	Vaccinia Venus: -18%

# (more compounds)
Structure | Vaccinia mCherry | Vaccinia Venus
O=C(NCC(=O)N(Cc1ccc(F)cc1)C(C(=O)NC1CCCC1)c1ccco1)c1ccco1 (stereo unspecified) | -14% | -9%
CN(Cc1cccs1)C(=O)CSc1nnnn1C | nt | -7%
CCCOc1ccc(/C=N/NC(=O)CSCc2ccc([N+](=O)[O-])cc2)cc1OCC | i | -12%
Cc1ccc2cc(CN(Cc3ccc4c(c3)OCO4)Cc3nnnn3Cc3ccco3)c(=O)[nH]c2c1C | i[1.46 µM] | ?
N#Cc1ccc(-c2nc3ccc(Br)cn3c2Cc2cccc(F)c2)cc1 | i | 0%
O=C(c1cccc([N+](=O)[O-])c1)n1nc(-c2ccccc2)nc1NCc1ccccc1 | -17% | -10%
COc1ccc(-c2cc(C(=O)Nc3ccccc3O)c3ccccc3n2)cc1OC | -18% | 0%
C#CCNc1c2c(nc3nnnn13)CCCC2 | i | 1%
O=C(COc1cccnc1[N+](=O)[O-])N1N=C(c2ccc(Cl)cc2)CC1c1ccco1 (stereo unspecified) | -8% | -16%
Cc1cccc(N2N=C(C(=O)OCC(=O)c3ccccc3)CCC2=O)c1 | -13% | -1%
COc1ccccc1OCC(=O)Nc1oc(-c2ccccc2)c(-c2ccccc2)c1C#N | nt | -21%
CCCC(CCC)C(=O)NNc1cc(=O)c2c(=O)n(C)c(=O)n(C)c2[nH]1 | i | -1%
